High-throughput results as filed in PubChem BioAssay.
PABP polyA inh = blocks human PABP binding to poly(A) RNA; 290,000 compounds, 1% hits; inhibition, % at 35 µM; fluorescence polarization;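 active means 50% or more with normal probe brightness, or confirmed in later tests; inconclusive means above 50% with abnormal brightness, or retests that disagree; inactive means below 50% or failed in later tests; about a fifth of its hits are not listed in these tables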;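 further: calls also rest on retests at 20 µM and on dose response follow-up; controls were probe without protein and protein plus probe with vehicle; some compounds called inactive have numbers as strong as hits; many hits fall short of the cut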
Yeast UUG start = modulators of start codon recognition fidelity in yeast; S. cerevisiae UUG-firefly luciferase reporter, luminescence/redox ratio; activity score, % at 18.7 µM; 350,000 compounds, 0.13% hits;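 active means replicate mean at a twofold rise or more, about +100% in these data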;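 further: firefly luciferase made from a UUG start codon reports start codon fidelity; reporter light over untreated wells divided by growth signal over untreated wells; some hits fall short of that in this replicate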
eIF4H inh = inhibitors of RNA binding by human eIF4H | eIF4H fluorescence polarization binding assay | AID 2012 | inhibition, % at 35 µM | Q15056 | 290,000 compounds, 0.94% hits;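 active means 50% or more with normal probe brightness, or confirmed in later tests; inconclusive means above 50% with abnormal brightness, or retests that disagree; inactive means below 50% or failed in later tests; about a fifth of its hits are not listed in these tables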;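 further: calls also rest on retests at 20 µM and on dose response follow-up; 0% = protein and probe with vehicle and 100% = probe without protein; strong numbers were not always called active; many hits fall short of the cut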
CSC inhib = blocks cancer stem cells; cancer stem cell-like cells viability, luminescence; inhibition, % at 7.5 µM; 300,000 compounds, 1.1% hits;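 active means mean at 75% or more and at least half the replicates too; inconclusive means mean and replicates disagree; tested in HMLE shEcad cells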;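 further: 0% = median of negative and 100% = median of positive control wells; the first replicate is given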
Rce1 inh = inhibitors of yeast Ras-converting enzyme | calls only | yeast membranes, quenched prenylated peptide cleavage fluorescence | AID 2563 | 290,000 compounds, 0.27% hits;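 active means fall in fluorescence gain of 50% or more versus controls, with final raw signal at or below 3038400; inconclusive means same 50% fall but final raw signal above 3038400; inactive means fall in fluorescence gain under 50%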;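 further: plate controls were neutral control wells for no effect and wells lacking membranes for full effect; tested at 10 µM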
Target sequence (Q03530 whole entry, looked up): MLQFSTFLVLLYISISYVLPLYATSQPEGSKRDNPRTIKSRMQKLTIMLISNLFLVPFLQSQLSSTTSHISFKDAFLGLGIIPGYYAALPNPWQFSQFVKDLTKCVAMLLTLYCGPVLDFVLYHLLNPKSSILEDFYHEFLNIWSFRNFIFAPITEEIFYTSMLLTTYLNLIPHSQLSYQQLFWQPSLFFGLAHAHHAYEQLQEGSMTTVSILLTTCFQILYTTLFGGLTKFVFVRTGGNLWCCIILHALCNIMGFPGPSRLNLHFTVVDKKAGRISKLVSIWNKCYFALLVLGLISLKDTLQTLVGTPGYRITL
Env fusion inh = blocks HIV Env-driven cell-cell fusion; 360,000 compounds, 1.1% hits; HeLa-JRFL Env/CEM21 cell fusion, luciferase; AID 651610; inhibition, % at 12.3 µM;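 active means mean replicate inhibition score of at least 50 and every replicate individually at or above 50; inconclusive means only one of the two criteria met; inactive means mean below 50 and not all replicates reaching 50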;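 further: 0% = plate neutral controls and 100% = maraviroc near 300 nM; one replicate is shown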
MT1-MMP act inh = MT1-MMP (human) activation inhibition; P50281; HT1080 RFP-PRO-GFP cells, GFP/RFP ratio fluorescence, overnight; percent of plate control window, DMSO zero; GFP/RFP ratio change, % at 20 µM; 360,000 compounds, 0.061% hits;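 active means GFP/RFP ratio change of at least 30% with cell ATP level not reduced by more than half and red fluorescence within 50% of control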; further: strong numbers were not always called active
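Material – HT1080 RFP-PRO-GFP cells · Control set – DMSO wells and RFP-L50D-GFP cells · Incubation – overnight cell settling, then overnight compound exposure, 37 °C, 5% CO2 · Compound dosing – single-point 20 µM compound, 1% DMSO · Read-out – GFP/RFP fluorescence ratio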
eIF4H inh retest = further read-out of eIF4H inh, marked with its call; inhibition, %; compound at 20 µM; confirmation average;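 mean of two retest wells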
PABP polyA inh retest = also measured in PABP polyA inh; calls as there; inhibition, %; compound at 20 µM; confirmation repeats;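 mean of two retest wells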
MT1-MMP act inh RFP = further read-out of MT1-MMP act inh, marked with its call; RFP signal change, %; measured here: RFP expression control read;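 0 = vehicle wells; hits needed this value within 50% of zero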
* = called active by the depositor; i = inactive; ? = inconclusive; . = no result given; & = joins results of further samples. No enrichment for hits. About 3% of those tested had a hit in this group.

SMILES | PABP polyA inh | Yeast UUG start | eIF4H inh | CSC inhib | Rce1 inh | Env fusion inh | MT1-MMP act inh | MT1-MMP act inh RFP | others
CCOC(=O)c1ccc(Oc2c(C)oc3cc(OS(C)(=O)=O)ccc3c2=O)cc1 | -11.2 | -32.2 | 8.9 | 3.4 | i | 19.5 | -1.0 | -6.4
CC1(C(=O)NS(=O)(=O)c2ccc(F)cc2F)CCN1C(=O)C/C=C/c1ccccc1 (stereo unspecified) | . | -4.9 | . | . | . | -17.4 | 1.3 | 3.3
COc1cc(OC)c(NC(=O)c2ccc(Br)o2)cc1Cl | 8.2 | -5.4 | 9.8 | 3.1 | i | . | -4.9 | 4.9
COc1ccccc1C1=NNC(=NCc2ccccc2)SC1 | ? | . | 1.6 | -13.6 | i | 4.2 | -1.6 | 3.1
Cc1ccc(C(=O)NNC(=O)CSc2nnc3c(n2)[nH]c2ccc(C)cc23)cc1 | 6.7 | . | 2.5 | . | i | . | 2.7 | 1.3
Cc1ccc(NC(=O)c2ccco2)c([N+](=O)[O-])c1 | 13.6 | . | 5.2 | -2.6 | i | -94.5 | 3.5 | 2.6
Cc1ccc(F)cc1NC(=S)NCCc1ccccc1 | 8.2 | . | -12.9 | . | i | 10.2 | 1.3 | -6.2
CCn1c(COc2ccc(=O)n(-c3ccccc3)n2)nnc1SCc1ccc(OC)cc1 | 6.4 | -15.8 | -4.5 | -3.4 | i | 12.0 | 4.1 | -4.6
CN(C(=O)Cn1cc(C#N)c2ccccc21)c1ccccc1 | -5.8 | . | -5.8 | 6.8 | i | -6.1 | -0.8 | -0.9
Cn1ncc(Br)c1C(=O)Nc1ccc(Br)cn1 | 0.9 | -4.4 | -2.7 | -10.7 | i | -31.5 | 1.3 | 1.5
Nc1cc(=O)[nH]c(SCc2nnc(-c3ccccc3)o2)n1 | 0.5 | -9.8 | -0.2 | -3.7 | i | 4.5 | 5.0 | 4.2
CCN(CC)CCCNc1cc(C(F)(F)F)c(C#N)c2nc3ccccc3n12 | 25.2* | -12.8 | 75.9 | 10.0 | i | -3.0 | -30.6 | 0.0 | eIF4H inh retest=24.1;PABP polyA inh retest=53.3*
CN(CC(=O)Nc1ccc(Cl)c(C(F)(F)F)c1)S(=O)(=O)c1cnc[nH]1 | . | 4.7 | . | . | . | 24.2 | 1.6 | -7.5
Cc1ccc(Nc2nc(CSc3nnc(-c4cccnc4)n3-c3ccccc3C)cs2)cc1 | 2.0 | . | 15.7 | -27.9 | i | -5.5 | 1.3 | 2.4
COc1ccc(O)c(C2=Nc3ccccc3N=C(c3ccccc3)C2)c1 | -0.3 | -15.6 | -3.8 | 5.0 | i | 9.6 | 6.0 | -15.2
COc1ccc(C(=O)OCCN2CCN(C3=NS(=O)(=O)c4ccccc43)CC2)cc1OC | 12.1 | -3.6 | 2.5 | . | i | 8.4 | 2.2 | 1.9
Cc1ccc(S(=O)(=O)/C(C#N)=C/c2c(N3CCN(C)CC3)nc3c(C)cccn3c2=O)cc1 | 29.2 | 6.3 | 52.0* | -14.4 | i | . | -4.1 | 4.2 | eIF4H inh retest=51.5*;PABP polyA inh retest=28.5
O=C(c1c[nH]c2ccccc12)N1CCN(Cc2ccccc2)CC1 | -12.5 | . | -11.2 | 1.2 | i | 8.4 | -3.2 | 0.3
CCN(C(=O)CSc1nnc(-c2cccc(F)c2)n1N)c1c(N)n(Cc2ccccc2)c(=O)[nH]c1=O | . | -9.9 | . | . | . | -2.2 | 1.8 | 2.8
CCc1ccc[n+](-c2[nH]c(=O)sc2/C=N/N=C(\[O-])CCn2c3ccccc3c3ccccc32)c1 | 6.7 | -2.0 | 10.0 | -2.1 | i | -4.0 | 5.3 | 4.5
N#CCNC(=O)C1CC(=O)N(CCc2ccc(F)cc2)C1 (stereo unspecified) | 3.6 | -3.6 | 11.3 | -12.1 | i | 3.8 | -3.3 | -2.3
Cc1ccc(C(C(=O)NCc2ccco2)N(C(=O)Cn2nnc3ccccc32)c2ccccc2)o1 (stereo unspecified) | 6.0 | -18.5 | -2.1 | -4.2 | i | . | -0.4 | -3.3
CCOC(=O)N1CCN(S(=O)(=O)c2ccc(C(=O)NNc3nc4c(C)cccc4s3)cc2)CC1 | -1.4 | -24.3 | -12.6 | . | i | 60.2* | 6.1 | -6.1
CCOC(=O)CSc1nc2ccsc2c(=O)n1C1CCN(C(=O)OCC)CC1 | -4.1 | . | -1.1 | -6.2 | i | . | 4.0 | -3.9
CC(C)(C)OC(=O)NC(Cc1ccccc1)C(=O)N1CCCC1C(=O)O (stereo unspecified) | -3.0 | -8.0 | -4.4 | -0.2 | i | 9.6 | -0.9 | 5.4
Cc1nc(NC(=O)c2ccc(Cl)cc2)nc2cc3c(cc12)OCO3 | -5.7 | -9.0 | -14.9 | -3.7 | i | -5.6 | 2.3 | 0.9
O=C(CSCc1ccc(Cl)cc1)NCc1ccccn1 | -11.7 | . | -1.1 | -9.5 | i | -1.9 | 3.3 | 7.4
CN(C(=O)CSc1ncc(C(F)(F)F)cc1Cl)c1c(N)n(Cc2ccccc2)c(=O)[nH]c1=O | 5.3 | 4.6 | 10.8 | . | i | -2.6 | -2.1 | -2.2
CN(Cc1cccc(F)c1)C(=O)c1ccc(S(=O)(=O)C(F)F)cc1 | -9.6 | 10.9 | 1.6 | -6.3 | i | -53.8 | 4.1 | 0.7
CN(C)CCCN(C(=O)c1ccc(C(=O)c2ccccc2)cc1)c1nc2ccc(F)cc2s1 | 13.0 | -6.4 | -8.4 | 1.3 | i | -20.9 | 3.2 | 0.3
CCOC(=O)Cc1csc(NC(=O)c2cc(C)on2)n1 | 0.4 | -5.9 | -6.1 | -10.0 | i | -8.6 | -3.0 | -0.5
COC(=O)[C@H](CC(C)C)NC(=O)NCCCc1ccccc1 | -5.0 | -5.0 | 6.4 | -8.4 | i | 4.7 | 2.8 | 2.2
CC(NC(=O)c1ccc(NC2=NC3CS(=O)(=O)CC3S2)cc1)c1ccccc1 (stereo unspecified) | -3.1 | -18.6 | -6.7 | . | i | -7.7 | 3.4 | 4.4
COc1cc2ccccc2cc1C(=O)Nc1ccccc1N1CCN(S(C)(=O)=O)CC1 | -4.8 | . | -2.4 | . | . | . | -5.2 | -13.8
O=c1oc(-c2ccco2)nc2sc3c(c12)CCCCC3 | 3.1 | -16.8 | 0.5 | 27.9 | i | 6.6 | 1.2 | 0.6
O=C(NNC(=O)C1CCCO1)c1ccc(F)cc1 (stereo unspecified) | -3.4 | -11.7 | -10.4 | -5.1 | i | 5.8 | 2.0 | 7.9
COc1cc(OC)cc(C(=O)NC(=S)N2CCCCCC2)c1 | -4.8 | . | -15.1 | -0.8 | i | -23.9 | 1.0 | 5.1
COC(=O)c1c(-c2ccccc2)csc1N1C(=O)Nc2ccccc2N1O | -5.0 | 4.5 | -4.9 | 4.6 | . | -35.9 | 2.3 | 0.3
Cc1cc(OCC(=O)NC2CCN(Cc3ccccc3)CC2)c2c(C)c(C)c(=O)oc2c1 | -8.3 | 4.8 | 1.6 | 0.8 | i | . | 3.6 | 2.9
COCCCn1c(=O)c2sccc2n(Cc2ccc(C)cc2)c1=O | 10.2 | -10.4 | -4.3 | -6.6 | i | -2.4 | 3.6 | -0.9
CCC1CCCCN1CCCNC(=O)C1CCCN(c2ncnc3c2nc2n3CCCCC2)C1 (stereo unspecified) | 1.3 | . | -1.5 | . | i | 1.1 | -2.8 | 2.7
O=C(/C=C/c1cccs1)N1CCN(c2ccccc2F)CC1 | -1.2 | . | 4.8 | 0.5 | i | 7.0 | -1.0 | 3.5
COC(=O)C1=C(C)NC(=O)/C1=C\c1cc(C)n(-c2c(C)cccc2C)c1C | 31.5 | 4.7 | 16.0 | -0.4 | i | -4.9 | -97.3 | 11.9
CCCCCN(C(=O)NC(=O)Nc1ccc(C)cc1)S(=O)(=O)c1ccccc1 | -8.2 | . | 2.5 | -8.8 | i | -1.0 | 5.2 | 5.7
COc1cc(C=O)ccc1OCc1ccc(Cl)nc1 | 5.7 | -10.4 | -1.5 | -3.0 | i | -65.9 | 2.6 | -2.1
O=C(NC1CCCCCC1)C1CCC(CNS(=O)(=O)c2ccc(Br)s2)CC1 (stereo unspecified) | -4.9 | . | -12.6 | 4.4 | i | . | 6.3 | 0.6
O=C(Nc1ccccc1)OCCOc1ccccc1 | 4.1 | -19.7 | -13.7 | . | i | -117.3 | 1.3 | -0.7
CCCCCn1c(=N)n(CC(O)COc2ccccc2OC)c2ccccc21 (stereo unspecified) | -16.4&1.0 | 0.0&-9.3 | -2.4&-6.8 | 3.7&-7.4 | i | -40.1&-3.4 | -4.4&4.9 | -6.6&-4.7
O=C(C1CCN(S(=O)(=O)c2ccccc2)CC1)N1CCc2ccccc21 | 9.8 | -22.8 | 9.7 | -17.8 | i | 3.9 | -1.7 | -4.2
CN1CCN(NC(=O)Nc2cccc(Cl)c2Cl)CC1 | 37.8 | . | -16.5 | 16.7 | i | 1.4 | -2.5 | 3.4
Carrying on:
SMILES | PABP polyA inh | Yeast UUG start | eIF4H inh | CSC inhib | Rce1 inh | Env fusion inh | MT1-MMP act inh | MT1-MMP act inh RFP | others
O=C(NC(CO)Cc1ccc([N+](=O)[O-])cc1)C(Cl)Cl (stereo unspecified) | -5.4 | 1.1 | -0.7 | . | i | . | 3.6 | 0.7
Cc1nnc(SCC2=C(C(=O)O)N3C(=O)C(NC(=O)c4cccc(F)c4F)C3SC2)s1 (stereo unspecified) | 18.9 | . | 10.6 | . | i | -2.4 | -4.4 | 1.4
O=C(COc1cccc(NC(=O)c2cccc([N+](=O)[O-])c2)c1)c1ccc(F)cc1 | -11.3 | . | -4.6 | 34.0 | i | . | -1.5 | -21.4
COc1ccc(N2CC(C(=O)N[C@@H](C)C(=O)NCc3ccccc3OC)CC2=O)cc1 (stereo partly specified) | -13.3 | 7.9 | -16.2 | -7.2 | i | 3.1 | 0.2 | 1.1
O=C(CN(CC1CCCO1)C(=O)CCC(=O)Nc1ccccn1)NCC1CCCO1 (stereo unspecified) | -2.0 | -21.0 | 8.5 | -7.4 | i | . | 1.7 | 3.0
CSCCC1NC(=O)N(CC(=O)Nc2ccc3c(c2)OCCO3)C1=O (stereo unspecified) | . | -6.0 | . | -7.6 | . | -2.1 | 2.1 | 2.5
CC1CCCN(C(C(=O)Nc2ccc3c(c2)OCO3)c2ccccc2)C1 (stereo unspecified) | -3.3 | -7.0 | -7.2 | -18.6 | i | -3.1 | 2.6 | 5.4
C=C1C(=O)O[C@H]2C[C@]3(C)C([C@@H](OC(=O)/C(C)=C/C)[C@H]12)[C@](C)(O)CC[C@H]3O (stereo partly specified) | 3.3 | -1.2 | -4.1 | 10.4 | i | 25.0 | -1.3 | -1.7
O=C(N/N=C/C=C\c1ccccc1)c1cnccn1 | -0.1 | . | -14.7 | 0.0 | i | -1.2 | -1.0 | -1.1
O=C(O)Cn1c(-c2cscn2)nc2ccccc21 | 6.7 | -23.5 | -13.7 | . | i | -14.9 | 1.2 | -7.5
